AID923: qHTS Assay for Allosteric/Competitive Inhibitors of Caspase-1: Spectroscopic Profiling in AFC Spectral Region | compound fluorescence, AFC spectral region (405/520 nm); almost no hit is shown here | Potency, µM (titrated, usually from 57.5 µM), inactives show at the highest dose fluorescence increase, usual class: activators | 75,000 compounds, 1.1% hits | AID 923, 2007; active = well fitted activation curve with a large enough effect; inconclusive = small, poorly fitted or top-dose-only effect;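 note: 0% is about no effect; scaled to a free AFC standard on each plate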
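Titrations up to 57 uM read every 20 sec for 3 min (405/520 nm) with 50 nM caspase 1 and 5 uM Ac-WEHD-AFC, pH 7.5 HEPES buffer. Fluorescence-vs-time intercept gave baseline, scaled against on-plate AFC standard.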
The depositor's hits bear a star; ? = inconclusive; & = joins results of further samples. Potency is the fitted concentration of half-maximal effect. A portion of the library, so the mix of outcomes need not match the whole.

Start of the listing, in advance (19 entries):
CC[C@@]1(O)CC(O)c2c(cc3c(c2O)C(=O)c2c(O)ccc(O)c2C3=O)C1C(=O)OC (stereo partly specified)
  AID923: 2.1%
ClC1=C(Cl)C2(Cl)C3C(Cl)C=CC3C1(Cl)C2(Cl)Cl (stereo unspecified)
  AID923: -1.7%&-2.5%
CC(=O)OC1C[C@H](O[C@@H]2C(O)C[C@H](O[C@@H]3C(O)C[C@@H](OC4CC[C@]5(C)C(CCC6C5CC(O)[C@@]5(C)C(C7=CC(=O)OC7)CC[C@@]65O)C4)OC3C)OC2C)O[C@H](C)[C@H]1O[C@H]1OC(CO)C(O)C(O)C1O (stereo partly specified)
  AID923: -1.6%
Cc1ccc(OP(=O)(Oc2ccc(C)cc2)Oc2ccc(C)cc2)cc1
  AID923: 1.4%
CN(C)C1C(=O)C(C(N)=O)=C(O)[C@@]2(O)C(=O)C3=C(O)c4c(O)cccc4[C@@](C)(O)C3C[C@@H]12 (stereo partly specified)
  AID923: 5.2%
COc1cc2c(cc1O)CC1c3c(cc(O)c(OC)c3-2)CCN1C (stereo unspecified)
  AID923: -0.7%&-2.0%
COC(=O)[C@@H]1C[C@H]2CC[C@H](O)C[C@H]2N1CC1CC1
  AID923: 1.4%
CCCN1[C@H](C(=O)OC)C[C@@H]2CC[C@@H](O)C[C@@H]21
  AID923: 0.1%
CCOC(=O)C1C(C=C(C)C)C1(C)C (stereo unspecified)
  AID923: -1.9%
CCC1CN2CCC1CC2C(O)c1ccnc2ccc(OC)cc12 (stereo unspecified)
  AID923: -0.2%
CN1C2CCC1CC(OC(c1ccccc1)c1ccccc1N)C2 (stereo unspecified)
  AID923: 0.1%
CN1CCCCC1c1ccc(-c2cccnc2)nc1 (stereo unspecified)
  AID923: -0.2%
COC(=O)[C@@]1(Cc2ccc(F)cc2)[C@H]2c3cc(C(=O)N(C)C)[nH]c3C[C@H]2CN1C(=O)c1ccccc1
  AID923: 4.6%
ClC1C(Cl)C(Cl)C(Cl)C(Cl)C1Cl (stereo unspecified)
  AID923: -1.7%
CCC(CO)NC(=O)C1C=C2c3cccc4[nH]cc(c34)CC2N(C)C1 (stereo unspecified)
  AID923: 7.0%
CC1(C)C(O)CC(O)[C@]2(C)C1CC(=O)[C@]1(C)C2CC[C@@]2(C)C(c3ccoc3)OC(=O)C3OC321 (stereo partly specified)
  AID923: -1.6%
C[C@@]12CCC(Cl)C[C@H]1CCC1C2CC[C@]2(C)C(=O)CCC12 (stereo partly specified)
  AID923: 0.2%
CC(C)c1ccc2c(c1O)CCC1C3=C(CC[C@]21C)C(=O)OC3 (stereo partly specified)
  AID923: -1.7%
CC1OC(=O)C(C(C)C)NC(=O)C(C(C)C)OC(=O)C(C(C)C)NC(=O)C(C)OC(=O)C(C(C)C)NC(=O)C(C(C)C)OC(=O)C(C(C)C)NC(=O)C(C)OC(=O)C(C(C)C)NC(=O)C(C(C)C)OC(=O)C(C(C)C)NC1=O (stereo unspecified)
  AID923: -1.0%

The listing, repeating the preview:
CC[C@@]1(O)CC(O)c2c(cc3c(c2O)C(=O)c2c(O)ccc(O)c2C3=O)C1C(=O)OC (stereo partly specified)
  AID923: 2.1%
ClC1=C(Cl)C2(Cl)C3C(Cl)C=CC3C1(Cl)C2(Cl)Cl (stereo unspecified)
  AID923: -1.7%&-2.5%
CC(=O)OC1C[C@H](O[C@@H]2C(O)C[C@H](O[C@@H]3C(O)C[C@@H](OC4CC[C@]5(C)C(CCC6C5CC(O)[C@@]5(C)C(C7=CC(=O)OC7)CC[C@@]65O)C4)OC3C)OC2C)O[C@H](C)[C@H]1O[C@H]1OC(CO)C(O)C(O)C1O (stereo partly specified)
  AID923: -1.6%
Cc1ccc(OP(=O)(Oc2ccc(C)cc2)Oc2ccc(C)cc2)cc1
  AID923: 1.4%
CN(C)C1C(=O)C(C(N)=O)=C(O)[C@@]2(O)C(=O)C3=C(O)c4c(O)cccc4[C@@](C)(O)C3C[C@@H]12 (stereo partly specified)
  AID923: 5.2%
COc1cc2c(cc1O)CC1c3c(cc(O)c(OC)c3-2)CCN1C (stereo unspecified)
  AID923: -0.7%&-2.0%
COC(=O)[C@@H]1C[C@H]2CC[C@H](O)C[C@H]2N1CC1CC1
  AID923: 1.4%
CCCN1[C@H](C(=O)OC)C[C@@H]2CC[C@@H](O)C[C@@H]21
  AID923: 0.1%
CCOC(=O)C1C(C=C(C)C)C1(C)C (stereo unspecified)
  AID923: -1.9%
CCC1CN2CCC1CC2C(O)c1ccnc2ccc(OC)cc12 (stereo unspecified)
  AID923: -0.2%
CN1C2CCC1CC(OC(c1ccccc1)c1ccccc1N)C2 (stereo unspecified)
  AID923: 0.1%
CN1CCCCC1c1ccc(-c2cccnc2)nc1 (stereo unspecified)
  AID923: -0.2%
COC(=O)[C@@]1(Cc2ccc(F)cc2)[C@H]2c3cc(C(=O)N(C)C)[nH]c3C[C@H]2CN1C(=O)c1ccccc1
  AID923: 4.6%
ClC1C(Cl)C(Cl)C(Cl)C(Cl)C1Cl (stereo unspecified)
  AID923: -1.7%
CCC(CO)NC(=O)C1C=C2c3cccc4[nH]cc(c34)CC2N(C)C1 (stereo unspecified)
  AID923: 7.0%
CC1(C)C(O)CC(O)[C@]2(C)C1CC(=O)[C@]1(C)C2CC[C@@]2(C)C(c3ccoc3)OC(=O)C3OC321 (stereo partly specified)
  AID923: -1.6%
C[C@@]12CCC(Cl)C[C@H]1CCC1C2CC[C@]2(C)C(=O)CCC12 (stereo partly specified)
  AID923: 0.2%
CC(C)c1ccc2c(c1O)CCC1C3=C(CC[C@]21C)C(=O)OC3 (stereo partly specified)
  AID923: -1.7%
CC1OC(=O)C(C(C)C)NC(=O)C(C(C)C)OC(=O)C(C(C)C)NC(=O)C(C)OC(=O)C(C(C)C)NC(=O)C(C(C)C)OC(=O)C(C(C)C)NC(=O)C(C)OC(=O)C(C(C)C)NC(=O)C(C(C)C)OC(=O)C(C(C)C)NC1=O (stereo unspecified)
  AID923: -1.0%
Nc1ccc([As](=O)(O)O)cc1
  AID923: -0.9%
COc1cc2c(cc1OC)-c1c(OC)c(OC)c(C=O)c3c1[C@H](C2)N(C)CC3
  AID923: 15.5%
NNCc1ccccc1
  AID923: -2.1%
CC(C)Nc1nc(Cl)nc(NC(C)C)n1
  AID923: -3.6%
C=C1CC2C(CC[C@]3(C)C(=O)CCC23)[C@]2(C)C=CC(=O)C=C12 (stereo partly specified)
  AID923: -1.3%
S=C=NCc1ccccc1
  AID923: -2.8%

Copied from the list.
For AID923, `CC[C@@]1(O)CC(O)c2c(cc3c(c2O)C(=O)c2c(O)ccc(O)c2C3=O)C1C(=O)OC` (stereo partly specified) has 2.1%
For AID923, `COC(=O)[C@@H]1C[C@H]2CC[C@H](O)C[C@H]2N1CC1CC1` has 1.4%

(next part)
CCC(=O)OC1CCC2C3CCC4=CC(=O)CC[C@@]4(C)C3CC[C@]12C (stereo partly specified)
  AID923: -0.3%
NC(N)=NOCCC(N)C(=O)O (stereo unspecified)
  AID923: -2.5%&1.1%
O=C(CC[N+](=O)[O-])OCC1OC(O)C(OC(=O)CC[N+](=O)[O-])[C@@H](OC(=O)CC[N+](=O)[O-])C1OC(=O)CC[N+](=O)[O-] (stereo partly specified)
  AID923: -0.9%
O=C(NC(=O)c1c(F)cccc1F)Nc1cc(Cl)c(OC(F)(F)C(F)C(F)(F)F)cc1Cl (stereo unspecified)
  AID923: -1.1%
CCc1cccc(C)c1N(C(=O)CCl)C(C)COC (stereo unspecified)
  AID923: 0.4%
CCN1C[C@]2(C)CC[C@H](O)[C@@]34C5C[C@@H]6[C@@H](OC)C[C@@](O)(C5[C@H]6O)[C@@H](CC23)[C@@H]14 (stereo partly specified)
  AID923: -0.1%
O=S1OCC2C(CO1)C1(Cl)C(Cl)=C(Cl)C2(Cl)C1(Cl)Cl (stereo unspecified)
  AID923: -3.0%
C/C=C(/C)C(=O)OC1CC[C@]2(C)C3CCC4[C@]5(O)CC(O)[C@]6(O)C(CN7CC(C)CCC7[C@]6(C)O)[C@]5(O)C[C@@]42O[C@]13O (stereo partly specified)
  AID923: -0.8%
O=C1C=C2C=CC3C[C@@]2(O1)C1CCCCN31 (stereo partly specified)
  AID923: 0.5%
C[C@@]12CCC(OS(=O)(=O)O)C[C@@H]1CCC1C2CC[C@]2(C)C(=O)CCC12 (stereo partly specified)
  AID923: 1.6%
CCCCCCC(C)OC(=O)COc1ccc(Cl)cc1Cl (stereo unspecified)
  AID923: 0.3%
CC(N)Cc1ccc(O)cc1 (stereo unspecified)
  AID923: -0.5%
CC1=C(O)C(=O)C=C2C1=CC=C1[C@]2(C)CC[C@@]2(C)C3C[C@](C)(C(=O)O)CC[C@@]3(C)CC[C@@]12C (stereo partly specified)
  AID923: 0.2%
C/C=C1/CN2CC[C@]34C(=C(C=O)[C@H]1C[C@@H]23)Nc1ccccc14
  AID923: 3.1%
COC(=O)[C@@H]1C[C@@]2(O)[C@H](O)[C@H](O)[C@H](O)C[C@H]2N1Cc1cccnc1
  AID923: 8.4%
COc1ccc2c(c1)[C@@]13CCCCC1[C@@H](C2)N(C)CC3 (stereo partly specified)
  AID923: -3.0%
CN(C)C1C(=O)C(C(N)=O)=C(O)[C@@]2(O)C(=O)C3=C(O)c4c(O)cccc4[C@](C)(O)C3C(O)C12 (stereo partly specified)
  AID923: 2.5%
CCC1(C2=NCCN2)Cc2ccccc2O1 (stereo unspecified)
  AID923: -1.6%
CN1C2CC(OC(=O)C(CO)c3ccccc3)CC1C(O)C2 (stereo unspecified)
  AID923: 1.5%
O=C1C=C2C(=CCOC2O)O1 (stereo unspecified)
  AID923: 2.3%
CC1C(=O)OC2C(O)C34C5OC(=O)[C@@]3(OC3OC(=O)[C@H](O)[C@]34C(C(C)(C)C)C5O)[C@]12O (stereo partly specified)
  AID923: -1.5%
CC1O[C@@H](OC2CC[C@@]3(C=O)C4CC[C@]5(C)C(C6=CC(=O)OC6)CC[C@@]5(O)C4CC[C@]3(O)C2)C(O)C(O)C1O (stereo partly specified)
  AID923: 0.4%
FC(F)(F)c1cccc(N2CCNCC2)c1
  AID923: -4.3%
C[C@@H](CO)NC(=O)[C@@H]1C=C2c3cccc4[nH]cc(c34)C[C@H]2N(C)C1
  AID923: ?
CC(C)=CCCC1(C)C=Cc2c(O)c3c(c(CC=C(C)C)c2O1)OC12C(CC4CC1C(C)(C)OC2(C/C=C(/C)C(=O)O)C4O)C3=O (stereo unspecified)
  AID923: -6.0%

COc1ccc2c(c1OC)C(=O)O[C@@H]2C1c2cc3c(cc2CCN1C)OCO3 (stereo partly specified)
  AID923: 0.6%
COc1ccc(C2Oc3c(I)c(OC)cc(OC)c3CC2O)cc1OC (stereo unspecified)
  AID923: 8.7%
CC1(C)C(=O)C=C[C@@]2(C)C1=C(O)C(=O)[C@@]1(C)C2CC[C@@]2(C)C(c3ccoc3)C[C@H]3O[C@@]321 (stereo partly specified)
  AID923: 0.9%
C=CP(=O)(O)c1ccccc1
  AID923: 0.4%
C=C[C@H]1CN2CC[C@H]1C[C@H]2c1[nH]c2ccccc2c1CCO
  AID923: -1.3%
COC1=C[C@H]2[C@H]3Cc4ccc(OC)c(O)c4[C@@]2(CCN3C)CC1=O
  AID923: -1.1%
OCC1CCCN2CCCCC12 (stereo unspecified)
  AID923: -1.6%
COc1cc2c(cc1OC)[C@@H]1C(=O)c3ccc(OC)c(CC=C(C)C)c3OC1CO2 (stereo partly specified)
  AID923: 8.3%
CCC(C)C(=O)c1c(O)c(C)c2oc3c(C)c(O)c(C(=O)C(C)CC)c(O)c3c2c1O (stereo unspecified)
  AID923: -0.6%

Compound activity: PubChem BioAssay, National Center for Advancing Translational Sciences (NCATS)
